Screening data as filed in PubChem.
BJeLR lethal – kills HRASV12-expressing BJeLR cells; BJeLR (HRASV12) viability, CellTiter-Glo ATP luminescence, 48 h; reference of the scale not given here; inhibition, % (concentration not given with the values); 300,000 tested, 0.17% active; AID 1554;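 active = replicate mean above 50%; inconclusive = above 50% but judged a plate artefact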;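 also: 50 nL library stock added to about 25 µL; numbers are from one replicate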
Sa ugtP lethal – kills S. aureus RN4220 lacking UgtP. S. aureus RN4220 ugtP deletion, OD600 growth, 16 h; some inactives read as strong as hits. growth inhibition, % (test concentration not listed). 330,000 tested, 0.54% active. AID 1259309;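 active = z-score under -3 and OD600 up to 0.15 on both plates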;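 also: plate controls were untreated wells for no effect and antibiotic for full effect; wells of about 80 µL received 100 nL stock; the first replicate is given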
RN4220 kill – S. aureus RN4220 growth inhibition | AID 1259311 | OD600, 16 h | 330,000 tested, 0.33% active | inhibition, % (no concentration beside the values);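 active = z-score of -3 or lower and OD600 up to 0.18 on both plates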;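 also: plate controls were untreated cells for no effect and reference antibiotic for full effect; stock transfer was 100 nL into about 80 µL; one replicate is shown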
PrP UTR inh – suppresses PrP 5' UTR mRNA reporter expression; cell-based PrP 5' UTR mRNA reporter, plate reader; inhibition, % (test concentration not listed); 340,000 tested, 0.35% active;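 active = every replicate at 50% or more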;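 also: 0 = median of the neutral control wells; tested in H4 reporter cells; numbers are from one replicate; inactives centre near -14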
Autofluor counter – flagged as autofluorescent in microsphere protease counterscreen; 360,000 tested, 3.1% active; fluorescence intensity (no concentration beside the values); compound autofluorescence counterscreen, microsphere flow cytometry; active compounds read high;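 active = at least 3 SD above the mean of all compounds, about 16000 in these data; inconclusive = too few beads counted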;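 also: 100 nL of 1 mM stock went into each well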
Mtb hypoxia rep – inhibitors of hypoxia-regulated fluorescent reporter in Mycobacterium tuberculosis; AID 1159583; M. tuberculosis hypoxia-regulated fluorescent reporter, fluorescence; 300,000 tested, 0.1% active; fluorescence inhibition, % (no concentration beside the values);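 active = 35 to 45% if threefold the growth effect, above 45% if 1.5-fold the growth effect; inactive = the rest, general growth blockers included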;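 also: wells of about 50 µL received 100 nL stock; 0% = vehicle wells and 100% = reference inhibitor wells; whole bacteria with a GFP reporter of the hypoxia response; strong numbers were not always called active; many hits fall short of the cut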
Mtb hypoxia rep growth – recorded beside Mtb hypoxia rep, whose call it bears; growth inhibition, %; measured here: M. tuberculosis growth (absorbance);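 0% = vehicle and 100% = reference antibiotic; read after six days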
* marks the source's active call; other numbers are inactive results; ? = inconclusive; nt = not tested or not shown; & = joins results of further samples. An unsorted share of the library, and some 3.9% of all compounds hit somewhere here.

SMILES	BJeLR lethal	Sa ugtP lethal	RN4220 kill	PrP UTR inh	Autofluor counter	Mtb hypoxia rep	Mtb hypoxia rep growth
COc1cc(OC)c2c(c1)OC(c1ccc(OC)c(OC)c1)C(O)C2=O (configuration not stated)	-8	13	-0.1	-1	4230	nt	nt
C=CCN(c1nc(C)c(Br)c(OC)n1)S(=O)(=O)c1ccc(C)cc1	-13	23	-5.4	-34	3150	1	2
O=C1CCCC/C1=N\Nc1ccc(OCc2ccccc2)cc1	1	nt	nt	-48	2513	nt	nt
COc1ccc(OC)c(N=CC2=C(O)CC(C)(C)CC2=O)c1	-8	-12	2.0	-10	7354	6	-2
COc1ccc(-c2nnc(Nc3ccc(OC)c(C(=O)N4CCCCC4)c3)c3ccccc23)cc1	-7	16	-0.8	-2	2602	15	7
COc1cccc(NC(=O)C2C3C=CC(C3)C2C(=O)O)c1 (configuration not stated)	1	nt	nt	2	3977	nt	nt
O=S(=O)(c1ccccc1)N1CCN(C/C=C/c2ccccc2)CC1	1	7	-4.5	-13	6670	7	2
O=C(NC1CCCC1)c1cc2nc(-c3ccccc3)cc(-c3ccccc3)n2n1	0	1	0.7	-16	4954	7	1
CC12CCC(C/C1=N/NC(=O)Nc1ccccc1)C2(C)C (configuration not stated)	5	nt	nt	-41	2132	nt	nt
COc1ccccc1C(C)N(C)Cc1nc(COc2ccccc2)no1 (configuration not stated)	-2	2	2.2	-6	4501	-1	11
Cc1cc(C)nc(N(C#N)Cc2ccc([N+](=O)[O-])cc2)n1	2	4	5.5	11	2222	17	2
O=C(CNC(=O)c1ccccc1Br)Nc1cccc(S(=O)(=O)Nc2ccccc2Cl)c1	nt	-1	7.9	-10	3598	17	37
Cc1c(OCC(=O)NC(Cc2c[nH]c3ccc(O)cc23)C(=O)O)ccc2c3c(c(=O)oc12)CCC3 (configuration not stated)	-4	9	3.0	-12	4361	7	-2
O=C(COC(=O)CNC(=O)c1ccc(Cl)cc1Cl)NC(=O)NCc1ccccc1	12	nt	nt	-7	?	nt	nt
CCOC(=O)N1CCN(C(=O)/C(=C/c2ccc(Br)cc2)NC(=O)c2ccc(OC)cc2)CC1	11	6	5.9	-16	10432	12	8
Cc1ccc(S(=O)(=O)N2CCCCC2)cc1C(=O)Nc1cccnc1	-2	7	-2.5	-18	4052	2	3
Cc1ccc(OCCNS(=O)(=O)c2ccc(N3CCCC3=O)cc2)cc1	nt	1	0.5	-4	2771	nt	nt
O=S(=O)(Nc1cccnc1)c1cccs1	0	4	-1.4	-4	3807	2	4
CCn1cc(C(=O)Nc2ccc(C)c([N+](=O)[O-])c2)cn1	-5	-3	-5.8	-22	7357	-4	5
CC1CCc2nc(NC(=O)C3CC3)sc2C1 (configuration not stated)	1	2	4.4	-48	2754	nt	nt
CCn1c(O)c(N=NC(=O)CNC(=O)c2ccco2)c2ccccc21	-11	-4	-1.4	-16	2010	-9	-14
CC(CCc1ccccc1)NC(=O)c1cccc(F)c1 (configuration not stated)	-11	8	-2.5	-22	3503	nt	nt
O=P(Cc1ccccn1)(c1ccccc1)c1ccccc1	-3	-3	1.1	-18	24061*	5	0
O=C(NCC1CCCO1)c1ccc2c(c1)N(Cc1ccccc1)CCS2 (configuration not stated)	5	2	1.9	-5	5822	11	3
N#CCCn1cc(C(=O)Nc2ccccn2)c(-c2ccccc2)n1	-3	4	-0.9	-8	3710	-2	6
SMILES	BJeLR lethal	Sa ugtP lethal	RN4220 kill	PrP UTR inh	Autofluor counter	Mtb hypoxia rep	Mtb hypoxia rep growth
Cc1ccc(S(=O)(=O)N(CC(=O)Nc2cccc(C)c2C)C(=O)N2CCN(C)CC2)cc1	2	7	2.6	-20	6331	2	-9
CCOC(=O)Cn1cc(C(=O)c2cccs2)c2ccccc21	-13	0	6.9	-19	8252	3	1
CC1(O)CCC2C3CCC4=CC(=O)CCC4=C3C=CC21C (configuration not stated)	nt	-1	0.4	4	3134	15	9
Cc1c(CC(=O)N2CCN(C(=O)C3COc4ccccc4O3)CC2)c(=O)oc2cc(O)ccc12 (configuration not stated)	5	6	1.2	4	6185	-7	1
Fc1ccc(SCCc2ccncc2)cc1	10&-1	4&10	4.4&8.1	3&-10	8328&3659	6&4	9&-3
CC1CCN(C(=O)c2[nH]cnc2C(=O)NC(C)C(=O)OC(C)(C)C)CC1 (configuration not stated)	nt	3	5.9	nt	nt	7	8
COc1cc(/C=C(/C#N)c2ccc(F)cc2)ccc1OCc1ccc(C(=O)O)o1	7	-15	9.0	0	10475	-5	3
CC(=O)N1CCOCCOCCOCC1	-4	8	1.3	-15	3885	3	-4
Cc1nc(NC(=O)CSC2=NCCS2)sc1C(=O)N(C)C	-17	2	-1.5	-8	6141	-11	-11
CC(C)CCNCC(=O)NC(c1ccccc1)c1ccccc1	nt	4	8.9	-14	4133	0	20
CCCCn1c(=O)c(F)cn(Cc2ccc(OC)c([N+](=O)[O-])c2)c1=O	4	nt	nt	-14	2445	nt	nt
O=C(COc1ccc(S(=O)(=O)N2CCOCC2)cc1)Nc1ccc2c(c1)OCCO2	-2	9	-0.1	-32	11166	6	-5
COC(=O)c1ccccc1NS(=O)(=O)c1ccc2c(c1)oc(=O)n2C	-4	3	2.0	7	3863	1	0
O=C(NCCc1c[nH]c2ccccc12)c1cnc2sccn2c1=O	5	3	5.0	-47	5696	3	-3
COc1ccc(-c2cc(C(=O)Nc3cccc(Cl)c3)no2)cc1	0	1	5.2	-53	3096	11	6
COc1ccc(C2c3c(-c4ccccc4O)n[nH]c3C(=O)N2CCc2ccc(OC)c(OC)c2)cc1 (configuration not stated)	-9	-12	17	-3	8562	-73	1
Cc1ccc(C=NNC(=O)c2nnn(-c3nonc3N)c2CN(C)C2CCCCC2)cc1	nt	6	1.9	nt	nt	4	2
COc1cccc(CNC(=O)CCc2nc3cc(S(=O)(=O)N4CCOCC4)ccc3n2C)c1	0	1	1.4	-8	nt	1	6
O=c1c2ccccc2nc(CSc2ncnc3nc[nH]c23)n1-c1cccc(C(F)(F)F)c1	6	2	-8.0	-16	3215	14	7
Cc1cccc(NC(=O)c2ccc(NC(C)c3ccccc3)c([N+](=O)[O-])c2)n1 (configuration not stated)	3	-1	-11	3	4483	3	0
Cc1ccc(S(=O)(=O)CCC(=O)OCC(=O)N2CCN(c3ccccc3)CC2)cc1	-5	4	2.8	7	6879	7	12
CCc1cccc(NC(=O)Cc2ccc(OC)c(OC)c2)c1	1	1	3.6	-26	2520	12	6
O=C(COc1cccc(Oc2ccccc2)c1)Nc1ncccn1	-4	3	4.8	-12	nt	5	3
COc1cc(C(C)=O)ccc1OCC(O)CNCC1(N2CCCCC2)CCCCC1 (configuration not stated)	-6	-5	7.7	-21	5883	16	6
O=C(O)C1C(C(=O)O)C1(c1ccccc1)c1ccccc1 (configuration not stated)	-2	1	2.1	-9	4058	12	4

Next section, starting with the last five of the part before.
SMILES	BJeLR lethal	Sa ugtP lethal	RN4220 kill	PrP UTR inh	Autofluor counter	Mtb hypoxia rep	Mtb hypoxia rep growth
Cc1ccc(S(=O)(=O)CCC(=O)OCC(=O)N2CCN(c3ccccc3)CC2)cc1	-5	4	2.8	7	6879	7	12
CCc1cccc(NC(=O)Cc2ccc(OC)c(OC)c2)c1	1	1	3.6	-26	2520	12	6
O=C(COc1cccc(Oc2ccccc2)c1)Nc1ncccn1	-4	3	4.8	-12	nt	5	3
COc1cc(C(C)=O)ccc1OCC(O)CNCC1(N2CCCCC2)CCCCC1 (configuration not stated)	-6	-5	7.7	-21	5883	16	6
O=C(O)C1C(C(=O)O)C1(c1ccccc1)c1ccccc1 (configuration not stated)	-2	1	2.1	-9	4058	12	4
COc1c2c(cc3oc(COC4OC(CO)C(O)C(O)C4O)cc(=O)c13)OC(C(C)(C)O)C2 (configuration not stated)	nt	1	4.5	nt	nt	16	9
CCOC(=O)c1c(NC2=NS(=O)(=O)c3ccccc32)sc2c1CCCCC2	0	-9	9.9	-16	1917	9	9
COC(=O)C(Cc1ccccc1)NC(=O)COc1ccc(C(C)(C)C)cc1 (configuration not stated)	-13	21	7.0	-1	3082	nt	nt
Cc1ccc(C)c(S(=O)(=O)N2CCN(CC(=O)NC(=O)NCc3ccco3)CC2)c1	3	10	6.0	2	3404	2	1
CC(=NOCON=C(C)c1ccc(F)cc1)c1ccc(F)cc1	nt	18	0.4	nt	nt	8	7
COc1ccc(NC(C)=O)cc1NC(=O)CSc1nnc(-c2ccc(F)cc2)n1N	3	-7	-3.6	-31	20810*	-3	-6
Cc1ccc(C(=O)Nc2nc(C)c(C)s2)o1	19	-8	0.7	-57	3235	nt	nt
CC(C)(C)[C@@H]1C=C(C(=O)O)O[C@H](OCc2ccc(CO)cc2)C1	5	nt	nt	-12	3669	nt	nt
COc1ccc(N2CCN(c3cnc4ccccc4n3)CC2)cc1	-5	-3	5.4	-85	3438	-4	3
CCN(Cc1ccc(NC(C)=O)cc1)CC1CCCN(CCc2cccc(OC)c2)C1 (configuration not stated)	9	0	1.6	9	nt	0	3
COC(=O)c1cc2c(N)c(C(=O)c3ccc(Cl)cc3)sc2nc1C(OC)OC	9	25	-4.3	-23	3892	-1	10
O=C1c2ccccc2NC(c2ccccc2O)N1NS(=O)(=O)c1ccccc1 (configuration not stated)	-3	10	11	-27	4531	2	4
C=COCCn1c(C)c(C(=O)OCC)c2cc(O)ccc21	1	-4	3.7	-11	21557*	-5	9
COc1ccc(S(=O)(=O)Nc2cc(C(=O)NCCCN3CCOCC3)ccc2N2CCOCC2)cc1	5	4	4.0	-26	6924	-2	3
CCn1c(SCC(=O)Nc2nnc(C)s2)nnc1C(C)NC(=O)c1ccccc1F (configuration not stated)	2	7	0.5	-28	3579	5	-6
COc1ccc(S(=O)(=O)NC(Cc2cnc[nH]2)C(=O)O)cc1 (configuration not stated)	-8	nt	nt	-10	2134	nt	nt
CNC(=O)COC(=O)COc1ccc2c(C)cc(=O)oc2c1	9	2	1.7	-25	4145	12	6
COC(=O)c1ccccc1NC(=O)CN(c1ccc(C)cc1)S(C)(=O)=O	1	8	6.2	-11	3115	21	6
Cc1nc(C)c(CCNC(=O)c2ccccc2Br)s1	10	11	-2.6	-3	6604	0	-6
O=C(Cn1cc([N+](=O)[O-])ccc1=O)N1CCc2ccccc21	nt	6	1.8	-14	3025	8	10
Cc1ccc(CNc2oc(COc3ccccc3Cl)nc2C#N)cc1	2	7	8.2	-3	2314	nt	nt
Cc1nnsc1C(=O)NNS(=O)(=O)c1cc(C(F)(F)F)cc(C(F)(F)F)c1	11	14	5.4	-13	nt	6	1
CC(=O)Nc1ccc(NC(=O)C(=O)c2cn(CC(=O)N3CCCC3)c3ccccc23)cc1	-7	-4	0.7	-20	3967	5	-2
Cc1cccn2c(=O)c3cc(C(=O)NCc4ccco4)c(=N)n(C4CCCC4)c3nc12	6	4	2.9	-24	5964	15	-1
COC(=O)C1=C(C)N(CCCC(=O)O)C(=O)NC1c1ccccc1Cl (configuration not stated)	3	4	12	-25	4208	9	5
SMILES	BJeLR lethal	Sa ugtP lethal	RN4220 kill	PrP UTR inh	Autofluor counter	Mtb hypoxia rep	Mtb hypoxia rep growth
CC1CCN(S(=O)(=O)c2ccc(C(=O)OC(C)C(=O)NC3CCCCC3C)cc2)CC1 (configuration not stated)	-4	4	2.9	-15	5583	6	0
O=C1CC(C(F)(F)F)=NN1	-2	6	1.4	-10	6696	5	-9
O=C(NCCCn1ccnc1)C(=O)NCc1ccccc1	-2	2	-1.1	-11	10069	4	6
CC(C)C(OC(=O)C1CCCO1)C(=O)NC1CCCC1 (configuration not stated)	4	6	2.9	-10	18597*	7	6
CCOC(=O)c1c(-n2c(C)cc(/C=C3/C(=O)NC(=O)N(CC)C3=O)c2C)sc2c1CCCC2	0	-4	-4.0	-2	3493	nt	nt
Cc1ccc(N(C(=O)c2snc(C(N)=O)c2N)C(C(=O)NCCC(C)C)c2ccco2)cc1 (configuration not stated)	2	-5	-2.2	-2	4285	-7	-3
O=S(=O)(c1cccc(-c2csc(-c3ccccc3)n2)c1)N1CCOCC1	-3	-10	-8.1	-17	5466	8	0
CC(=O)Nc1ccc(S(=O)(=O)Nc2ccc(N3CCOCC3)c(F)c2)cc1	-1	1	7.1	-9	nt	7	-18
COC(=O)C(C)SC1=N/C(=C/c2ccc(-n3cncn3)cc2)C(=O)N1 (configuration not stated)	3	10	5.0	-23	4592	-12	3
O=C(c1cncc(Br)c1)N1CCN(c2ccc([N+](=O)[O-])cc2)CC1	3	16	1.9	-19	1896	11	12
